MgrA-DNA mod: alters Staphylococcus aureus MgrA binding to DNA; fluorescence polarization; 84,000 tested, 0.13% active; inhibition, %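 (about 10 µg/mL by stock and volumes)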;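 active = above 50% in either of two replicates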;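 also: 0% = protein plus DNA without compound and 100% = DNA alone without protein; higher means less MgrA bound to DNA so lower polarization; one replicate is shown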
Sa helicase inh: S. aureus DNA helicase inhibition. purified S. aureus helicase, fluorescence unwinding assay; about half of the hits fall short of the stated cut. AID 485395. inhibition, %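 (tested at about 80 µM)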. 120,000 tested, 0.05% active;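 active = both duplicates at 50% or more, or one of them with a favoured structure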;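 also: 0% = mean of negative control wells and 100% = mean of positive control wells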
* hit, by the source's call; nt = not tested or not shown.

SMILES	MgrA-DNA mod	Sa helicase inh
S=C(NC1CCCCC1)N1CCCCC1	0.5	nt
CC[N+]12CCC(CC1)C(C(=O)c1cccs1)C2 (stereo unspecified)	0.8	-11
CCOC(=O)c1ccc(COC(=O)c2ccc(-c3nnc(-c4ccccc4)o3)cc2)o1	0.3	1
COc1ccc(C=Nc2ccccc2Sc2c(C)n[nH]c2C)cc1	0.3	-17
Cc1c(C(=O)O)sc2ccccc12	nt	-2
CCCn1cc(SCC(=O)N2CCc3ccccc32)c2ccccc21	0.8	11
O=C(Cn1c(CC(=O)N2CCOCC2)nc2ccccc21)Nc1ccc2c(c1)OC(F)(F)O2	nt	-13
Cn1nc(C(C)(C)C)cc1C(=O)NCc1ccc2c(c1)CCO2	-2.1	nt
Cc1cc(OS(=O)(=O)CS(=O)(=O)Oc2ccc(Cl)c(C)c2)ccc1Cl	0.0	nt
Cc1cc(N2CCCCC2)nc(-c2ccc(Br)cc2)n1	4.0	16
CCCP(=O)(CC(=O)O)c1ccccc1 (stereo unspecified)	2.1	-3
O=C(NCC(=O)N1CCCC1)c1cccs1	nt	7
CCC1CCCCN1C(=O)COc1ccc(F)cc1 (stereo unspecified)	-2.2	6
CCN1CCN(c2ccc(N=Cc3cccc(C)c3O)cc2)CC1	-2.8	3
Cc1ccc(CNC(=O)COC(=O)CN2C(=O)C3CC=CCC3C2=O)cc1 (stereo unspecified)	nt	-8
COc1ccc(OC)c(Nc2nc(Nc3cc(OC)ccc3OC)nc(N3CCC(C)CC3)n2)c1	nt	28
COc1ccc(C2NCCS2)cc1 (stereo unspecified)	-2.0	4
CCC(=O)Nc1ccc(S(=O)(=O)N2CCCC2)cc1	7.2	27
Cc1ccc2oc(-c3ccc(NC(=O)C(F)(F)F)cc3)nc2c1	0.1	-4
CC(=O)N(C1=NCCC(=O)S1)c1ccc(Cl)cc1	13	nt
O=C1c2ccccc2C(=O)N1c1cccc(Br)c1	nt	9
O=C(O)CCC/C=C\C[C@@H]1[C@@H](/C=C/[C@@H](O)COc2cccc(C(F)(F)F)c2)[C@H](O)C[C@@H]1O	2.1	nt
CC(C)n1nnc(-c2ccc(OCc3ccccc3F)cc2)n1	-2.0	11
FC(F)(F)CNCc1ccccc1	nt	0

Fetched by compound from the list above, two records:
SMILES	MgrA-DNA mod	Sa helicase inh
CC(C)n1nnc(-c2ccc(OCc3ccccc3F)cc2)n1	-2.0	11
Cc1ccc(CNC(=O)COC(=O)CN2C(=O)C3CC=CCC3C2=O)cc1 (stereo unspecified)	nt	-8

(listing goes on)
SMILES	MgrA-DNA mod	Sa helicase inh
CN1CCCN(C(=O)NC(C)(C)C)c2nc3ccccc3nc21	nt	11
O=C(CCn1c(=O)sc2ccccc21)Nc1ccon1	nt	-1
CCCCC(=O)NCc1nc(-c2ccc(C(F)(F)F)cc2)no1	-2.2	nt
NC(=O)C1CCN(C(=O)c2cnn(-c3ccccc3)c2-n2cccc2)CC1	1.9	8
CC(C)N(Cc1ccccc1)C(=S)NC(=O)C1CC1	nt	-12
COc1ccc(NC(=S)NCC(c2ccccc2)c2c[nH]c3ccccc23)cc1 (stereo unspecified)	-0.6	7
CCc1ccccc1NC(=O)Cn1cnc2ccccc2c1=O	0.0	10
Cn1cnnc1-c1cccc(NC(=O)Nc2cccc3ccccc23)c1	-2.8	3
CC1=CC(=O)N(CCO)C1c1ccc(Cl)cc1 (stereo unspecified)	nt	2
CN(C(=O)CCOc1ccccc1)c1c(N)n(Cc2ccccc2)c(=O)[nH]c1=O	nt	-12
N#C/C=C1/NC(=O)CS1	nt	-14
CN(c1ccccc1)N1C(=O)CSC1=S	0.7	5
COc1cc(/C=N/NC(=O)Cc2cn3ccsc3n2)cc(OC)c1O	nt	-3
Cc1cccc(-c2nc(C)c(CCNS(=O)(=O)c3ccc(F)c(C(F)(F)F)c3)s2)c1	4.2	-3
N#CC(C#N)=C(C#N)c1ccco1	38	nt
O=C(Nc1ccnc(-c2cccnc2)n1)c1cccc(C(F)(F)F)c1	-1.5	nt
O=C(Oc1ccccc1C(=S)N1CCOCC1)c1ccccc1	0.5	15
Cc1cccc(NS(=O)(=O)c2ccc3[nH]c(=O)cc(C)c3c2)c1	nt	4
COc1cccc2sc(=NC(=O)c3cccc4ccccc34)n(C)c12	nt	-18
CCc1ccc(NC(=O)CSc2ccccc2)cc1	2.5	12
CC(C(=O)OCC(=O)c1ccc(Br)cc1)N1C(=O)C2C3C=CC(C3)C2C1=O (stereo unspecified)	-2.3	nt
O=C(NCc1cn2ccsc2n1)C1c2ccccc2Oc2ccccc21	nt	9
CC1(C)CC(N2CCCC2)=C/C(=N/NC(=O)c2cccnc2)C1	nt	-8
O=C(Cc1coc(-c2ccc(F)cc2)n1)NCc1ccccc1	nt	11
COc1cccc(OC)c1C(=O)OCC(=O)c1cc2ccccc2o1	nt	8
CC(=O)N1CCC2(CC1)C(C#N)=C(N)SC(N)=C2C#N	-0.2	16
Cc1cc(OCC(O)CN2C(C)CCCC2C)ccc1C(C)C (stereo unspecified)	nt	2
CN(C)c1ccc(/C=C2\C(=N)N3N=C(S(C)(=O)=O)SC3=NC2=O)cc1	nt	-83
O=C(OCCS(=O)(=O)c1ncccc1C(F)(F)F)c1cccc(Cl)c1	-2.6	nt
CCOC(=O)C1CCN(CN2C(=O)C3(SCC(=O)N3c3cccc(Cl)c3)c3ccccc32)CC1 (stereo unspecified)	nt	-5
Cc1ccc(NCN2C(=O)c3ccccc3C2=O)cc1	nt	-23
N#Cc1ccc(COC(=O)CC2CCCC2)cc1	nt	-8
OCCN(CCO)c1nc2ccccc2[nH]1	1.6	2
O=C(Cn1nc(-c2ccccc2)ccc1=O)NCC1COCCO1 (stereo unspecified)	13	8
Cc1oc2c(c1C(=O)NCCc1ccccc1)C(=O)c1ccccc1C2=O	0.4	4
CC(=O)N(Cc1cc2ccccc2[nH]c1=O)C1CCCCC1	-2.4	5
CCC(Sc1c[nH]c2ccccc12)C(=O)O (stereo unspecified)	-1.5	-2
CCN(CC)S(=O)(=O)c1ccc(NC(=O)COC(=O)Cc2cccs2)cc1	nt	9
CCOc1ccc(NC(=O)CSc2nnnn2C2CCCC2)cc1	0.0	21
O=C(CN1CCC(n2nnc3cc(C(F)(F)F)ccc32)CC1)N1CCc2ccccc21	3.8	14
Cn1cc(C=Nc2ccccc2)c2ccccc21	-1.4	-12
CCc1ccccc1NC(=O)CCC(=O)N1CCCn2nc(C)cc21	nt	17
O=C(O)CCN1C(=O)c2ccccc2Sc2ncccc21	nt	6
Cc1ccc(N2C(=O)N(Cc3cc(=O)n4ccsc4n3)C(=O)C2C)cc1 (stereo unspecified)	nt	-6
CN(C)C(=O)NC1C=CS(=O)(=O)C1 (stereo unspecified)	-1.1	10
N#Cc1ccc(S(=O)(=O)N2CCNC(=O)C2CC(=O)Nc2cc(Cl)ccc2Cl)cc1 (stereo unspecified)	nt	-13
COC(C(=O)Nc1ccccc1C(=O)N1CCOCC1)c1ccccc1 (stereo unspecified)	1.6	10
CC(=O)Nc1c(O)c2ccccc2oc1=O	-5.1	1

For reference, part of the list above.
SMILES	MgrA-DNA mod	Sa helicase inh
CN(C)C(=O)NC1C=CS(=O)(=O)C1 (stereo unspecified)	-1.1	10
N#Cc1ccc(S(=O)(=O)N2CCNC(=O)C2CC(=O)Nc2cc(Cl)ccc2Cl)cc1 (stereo unspecified)	nt	-13
COC(C(=O)Nc1ccccc1C(=O)N1CCOCC1)c1ccccc1 (stereo unspecified)	1.6	10
CC(=O)Nc1c(O)c2ccccc2oc1=O	-5.1	1

More compounds:
SMILES	MgrA-DNA mod	Sa helicase inh
OCCn1c(CSc2ccccc2)nc2ccc(Cl)cc21	nt	-4
NC(=S)N=Nc1c(O)[nH]c2ccc(F)cc12	1.6	nt
CCOc1nc2ccccc2c(=O)n1Cc1ccccc1	nt	-3
O=C1CC(c2ccccc2)S(=O)(=O)c2ccccc21 (stereo unspecified)	-2.6	nt
O=C(O)CCN=CC1=C(O)CC(c2ccccc2)CC1=O (stereo unspecified)	nt	-16
CCOC(=O)Cn1nc(-c2cccs2)c(C#N)c1SC	-1.1	nt
COc1cc(OC)nc(/N=C/N(C)C)n1	2.8	nt
CCC(C)NC(=O)c1cc(C(C)C)on1 (stereo unspecified)	nt	14
O=C(O)CSCC(=O)Nc1ccc(-c2nc3ccccc3s2)cc1	13	nt
CCOC(=O)C1C(=O)C=C(Nc2ccc(C(F)(F)F)cc2)CC1c1ccccc1 (stereo unspecified)	-1.8	4
Cc1ccc2cc3cc(C(=O)NCCCN4CCc5ccccc5C4)oc3nc2c1	nt	3
CCOc1ccc(/C=C2/SC(=Nc3ccccc3)NC2=O)c(OCC)c1	-2.5	nt
O=C(Nc1ccc(Cl)c(Cl)c1)OCc1cccnc1	nt	11
O=C(CSc1nnc(COc2ccccc2)o1)Nc1ccccc1	0.7	-13
Cc1ccc(C(=O)NCc2ccc3[nH]c4c(c3c2)CCCC4)cc1C	0.9	16
COc1cc(/C=C/C(=O)O)ccc1Cc1ccc(C(=O)O)o1	nt	-14
N/C(=N\S(=O)(=O)c1cc(C(F)(F)F)cc(C(F)(F)F)c1)c1ccccc1	-1.4	nt
CCOC(=O)c1cnc(-c2cccs2)[nH]c1=O	4.8	nt
C=CCSc1sc(C(=O)OCC)c2c1C(=O)CCC2	1.5	nt
CNC(=O)CSc1nnc(-c2ccccc2F)n1C1CCCCC1	nt	-11
Cc1nc(-c2cc(C#N)c(NCc3ccccc3)nc2C)cs1	-1.4	nt
O=C1Nc2ccccc2/C1=N\N=C1/SCC(=O)N1c1ccc(O)cc1	7.4	9
CCOc1cc(N2CCOCC2)c(OCC)cc1NC(C)=O	nt	-20
Cc1ccc(CSc2nc3ccc(C(=O)NCCN4CCOCC4)cc3n2C)cc1	nt	14
O=c1[nH]c2ccccc2n1CCOc1ccccc1	-1.4	12
CC(C)CC(NC(=O)C1CCCCC1)C(=O)NCc1ccccn1 (stereo unspecified)	0.2	3
CCC(C)(C)NC(=O)Cn1nnc(-c2ccc(OC)cc2)n1	-3.1	2
O=C(CCN1C(=O)c2ccccc2C1=O)Nc1ccc(S(=O)(=O)Nc2nccs2)cc1	0.5	6
O=C(O)c1ccc(CSc2nc3ccccc3s2)cc1	nt	-10
CCc1cc2c(=O)n(NC(=S)NC)cnc2s1	nt	-4
O=S(=O)(c1cccc2cccnc12)N(CCc1ccccc1)Cc1ccccc1	3.1	12
O=C1C(c2c(O)n(-c3cc(Cl)cc(Cl)c3)[nH]c2=O)=Nc2ccccc21	4.2	17
COC(=O)c1c(C)[nH]c(C(=O)COC(=O)Cn2cc(C(F)(F)F)ccc2=O)c1C	nt	10
N#Cc1c(-c2cccs2)cc(-c2ccccc2)nc1OCC(=O)c1ccccc1	0.6	nt
CN1CCN(C(=O)Cn2ncc3c4ccccc4n(C)c3c2=O)CC1	nt	-19
CC1Cc2cc(S(=O)(=O)NCCN3CCN(Cc4ccccc4)CC3)ccc2N1C(=O)C1CC1 (stereo unspecified)	nt	-25
COc1ccc(-c2noc(CNC3CCCCC3)n2)cc1	nt	-16
NC(=O)c1ncoc1-c1ccc(Cl)cc1Cl	0.3	nt
O=C(CSC1=NCCN1)N1CCc2ccccc21	0.8	15
Cc1ccccc1-n1c(C)[n+](C)c2ccccc21	-0.3	-14
Nc1[nH]c(=O)[nH]c(=O)c1N=Nc1ccccc1Cl	nt	8
N#CC1=C(N)n2c(s/c(=C\c3ccco3)c2=O)=C(C#N)C1c1ccco1 (stereo unspecified)	5.8	-2
COC(=O)/C(=C/C=C/c1ccccc1)NC(=O)c1ccccc1	3.2	4
CCc1ccc(NC(=O)C2CCCN(S(=O)(=O)N3CCOCC3)C2)cc1 (stereo unspecified)	1.9	5
COc1ccc(Br)cc1CNC(C)(C)CO	nt	-11
O=C1CCC(=O)N1CNc1cc(Cl)c(Cl)cc1Cl	-0.6	nt
CCOC(=O)c1cc(-c2ccccc2)nnc1Cl	1.6	nt
O=C(O)C1CCC(c2ccc(-c3ccccc3)cc2)CC1 (stereo unspecified)	1.2	7

Three entries already listed, sorted by molar mass, ascending:
SMILES	MgrA-DNA mod	Sa helicase inh
CCOC(=O)c1cc(-c2ccccc2)nnc1Cl	1.6	nt
Nc1[nH]c(=O)[nH]c(=O)c1N=Nc1ccccc1Cl	nt	8
COc1ccc(Br)cc1CNC(C)(C)CO	nt	-11

(listing goes on)
SMILES	MgrA-DNA mod	Sa helicase inh
COc1ccc(NC(=O)CNc2cccc3c2CCCC3)cc1	-1.4	-20
Cc1cc(C)c(C)c(S(=O)(=O)N2CCN(C(=O)c3ccco3)CC2)c1C	17	-15
CN(C)c1ccc(/C=C2/C(=O)ON=C2c2ccccc2)cc1	nt	-90
CC1CN(C(=O)c2cc3c(s2)CCC3)CC(C)O1 (stereo unspecified)	-1.4	-2
CC(=O)N1CCN(c2nc(N)c3c(N)nc4c(c3c2C#N)CC(=O)N4C)CC1	nt	24
CC(C)C(NC(=O)c1ccc(Cl)cc1)C(=O)NCC1CCCO1 (stereo unspecified)	nt	-7
COc1ccc(CCN(C)C(=O)COc2ncnc3ccccc23)cc1OC	nt	-2
N#Cc1c(Cl)cccc1NC1CCCCNC1=O (stereo unspecified)	-1.9	nt
CCN(C(=O)Cn1c(-c2ccco2)nc2ccccc21)c1ccccc1	-5.5	-3
CN(C)/C=C/C(=O)c1csc(-c2ccccc2)n1	nt	26

Compound profiles (already shown). Values in the order: MgrA-DNA mod	Sa helicase inh
`CC(=O)N1CCN(c2nc(N)c3c(N)nc4c(c3c2C#N)CC(=O)N4C)CC1` is entered as nt	24
`COc1ccc(NC(=O)CNc2cccc3c2CCCC3)cc1` is entered as -1.4	-20

Source: PubChem (ICCB-Longwood Screening Facility, Harvard Medical School)

Only part of the results is shown; the hit share may differ from the screen's.
